# Sa ugtP lethal: compounds lethal to S. aureus RN4220 ugtP deletion mutant. OD600 growth, 16 h; some inactives read as strong as hits. growth inhibition, % (concentration not given with the values). hit rate 0.54% among 330,000. AID 1259309;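 active = z-score under -3 and OD600 up to 0.15 on both plates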;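 note: plate controls were untreated wells for no effect and antibiotic for full effect; wells of about 80 µL received 100 nL stock; the first replicate is given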
# RN4220 kill: S. aureus RN4220 growth inhibition | OD600, 16 h | inhibition, % (test concentration not listed) | hit rate 0.33% among 330,000;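 active = z-score of -3 or lower and OD600 up to 0.18 on both plates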;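 note: plate controls were untreated cells for no effect and reference antibiotic for full effect; stock transfer was 100 nL into about 80 µL; one replicate is shown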
# BJeLR lethal: BJeLR cell viability loss; hit rate 0.17% among 300,000; BJeLR (HRASV12) viability, CellTiter-Glo ATP luminescence, 48 h; reference of the scale not given here; inhibition, % (concentration not given with the values);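 active = replicate mean above 50%; inconclusive = above 50% but judged a plate artefact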;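 note: 50 nL library stock added to about 25 µL; numbers are from one replicate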
# Bead autofluor: compound fluorescence in toxin protease inhibitor counterscreen; fluorescence intensity (no concentration beside the values); hit rate 3.1% among 360,000; compound autofluorescence counterscreen, microsphere flow cytometry; stronger effect = higher value;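 active = at least 3 SD above the mean of all compounds, about 16000 in these data; inconclusive = too few beads counted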;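 note: 100 nL of 1 mM stock went into each well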
# PrP UTR inh: suppresses PrP 5' UTR mRNA reporter expression; hit rate 0.35% among 340,000; inhibition, % (test concentration not listed); cell-based PrP 5' UTR mRNA reporter, plate reader;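 active = every replicate at 50% or more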;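 note: 0 = median of the neutral control wells; tested in H4 reporter cells; numbers are from one replicate; inactives centre near -14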
# Mtb hypoxia inh: reduces hypoxia-regulated biosensor signal in M. tuberculosis; M. tuberculosis hypoxia-regulated fluorescent reporter, fluorescence; AID 1159583; fluorescence inhibition, % (no concentration beside the values); hit rate 0.1% among 300,000;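 active = 35 to 45% if threefold the growth effect, above 45% if 1.5-fold the growth effect; inactive = the rest, general growth blockers included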;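 note: wells of about 50 µL received 100 nL stock; 0% = vehicle wells and 100% = reference inhibitor wells; whole bacteria with a GFP reporter of the hypoxia response; strong numbers were not always called active; many hits fall short of the cut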
# Mtb hypoxia inh growth: also measured in Mtb hypoxia inh; calls as there; growth inhibition, %; measured here: M. tuberculosis growth (absorbance);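 0% = vehicle and 100% = reference antibiotic; read after six days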
# An asterisk follows results filed as active; u = inconclusive; x = no result given; & = joins results of further samples.
SMILES,Sa ugtP lethal,RN4220 kill,BJeLR lethal,Bead autofluor,PrP UTR inh,Mtb hypoxia inh,Mtb hypoxia inh growth
CCOc1ccc(CCNC(=O)C(CC)n2nc(C)n3c(cc4sccc43)c2=O)cc1OCC (stereo not drawn),-3.5,0.6,-7.3,12987,-5.1,-3.0,-1.5
COc1cc(CNC(=O)c2ccccc2NC(=O)C2=C(C)OCCS2)cc(OC)c1OC,-3.9,0.2,-2.7,5526,-1.1,13.5,9.4
NS(=O)(=O)c1cccc(NC(=O)CSc2nnc(C3CC3)n2C2CC2)c1,0.9,1.3,x,3835,6.5,0.6,9.5
COc1ccc(-c2cc(C(F)F)n3ncc(C(=O)Nc4cccc(S(=O)(=O)N5CCOCC5)c4)c3n2)cc1,-3.3,9.7,0.5,5154,-23.9,-2.4,9.5
COc1ccc(C(=O)/C(C#N)=N/Nc2cccc([N+](=O)[O-])c2)cc1,x,x,17.2,5274,-4.8,x,x
CCC(C)n1c(SCC(=O)/C(C#N)=C(\C)N)nc2ccccc2c1=O (stereo not drawn),x,x,-0.5,10789,-37.2,x,x
C=CCn1c(N)cc(=O)nc1SCC(=O)Nc1ccc(C(=O)OC)cc1,-0.3,1.5,-2.6,6160,-23.8,-1.5,-1.1
COc1ccc(-n2c3c(cc(C(=O)NNc4ccccc4C)c2=O)C(=O)CC(C)(C)C3)cc1,1.2,1.3,7.5,2372,-27.0,-2.1,6.0
O=C(Cc1ccc(F)cc1)N1CCC(CC2CC(c3cccc(Br)c3)=NO2)(C(=O)NCC2CCCCC2)CC1 (stereo not drawn),2.9,-1.5,-9.8,3012,0.7,2.3,1.2
CC(C)(C)c1ccc(-c2noc(-c3ccc4c(c3)CCO4)n2)cc1,43.1,-17.5,11.0,x,-33.7,14.7,9.0
Cn1cc(C(=O)N/N=C/C2=C(N3CCOCC3)C(=C/c3ccc([N+](=O)[O-])cc3)/CC2)ccc1=O,x,x,-2.8,4504,-4.1,x,x
CC(C(=O)O)N(c1ccccc1Cl)S(C)(=O)=O (stereo not drawn),-4.7,-1.6,x,3067,-7.5,1.0,5.4
O=C(COc1coc(CN2CCc3ccccc32)cc1=O)N1CCCCC1,9.2,5.7,1.3,u,9.8,-0.3,-3.0
COc1ccc(-c2ccc(SCC(=O)c3cccs3)nn2)cc1,4.3,11.8,-19.3,3424,-9.1,8.3,0.6
CC(NC(=O)C1CCN(C(=O)[C@@H]2Cc3ccccc3CN2C(=O)OC(C)(C)C)CC1)c1ccccc1 (stereo partly drawn),1.6,1.1,1.8,5211,-0.4,5.0,5.7
COc1ccc(/C=N/N(CCC(=O)NC(C)(C)C)C2=NS(=O)(=O)c3ccccc32)cc1,x,x,1.7,3878,2.4,x,x
Cc1csc(NC(=O)c2cc3c(s2)CCCC3)n1,-8.1,-1.5,5.9,2462,-9.0,-11.8,2.5
COc1ccc(C(=O)N2CC3(CC(c4cccc(NC(=O)CC(c5ccccc5)c5ccccc5)c4)=NO3)CC2C(N)=O)cc1 (stereo not drawn),6.3,-1.4,x,x,x,10.8,4.9
CCSc1nc2c(c(=O)[nH]1)C(C(C)C)C(C#N)=C(N)O2 (stereo not drawn),6.2,10.0,3.2,5424,1.0,x,x
Cc1cccc(NC(=S)N2CCN(S(=O)(=O)c3cccc(F)c3)CC2)c1,-0.7,1.7,-5.2,3323,-3.1,-12.2,-0.6
O=C(CSc1nnc(-c2cccnc2)n1Cc1ccco1)c1ccc(Cl)c(Cl)c1,-17.8,6.4,-5.9,u,-18.2,5.7,3.0
COCCNC(=O)c1ccc2c3n(nc2c1)-c1ccccc1CO3,2.5,6.7,6.5,3217,-37.2,14.3,6.8
S=c1[nH]nc(-c2ccc(Br)cc2)n1Cc1ccccc1,10.4,0.3,-2.6,2196,-21.5,2.0,3.6
CN(C)/N=C/c1cn(-c2ccccc2)nc1-c1cccnc1,x,x,-12.8,4754,-3.1,x,x
Cc1ccc(S(=O)(=O)N(Cc2cc3cccc(C)c3[nH]c2=O)c2ccccc2)cc1,-9.5,9.7,0.4,2429,-5.1,-1.8,16.1

# Following part:
SMILES,Sa ugtP lethal,RN4220 kill,BJeLR lethal,Bead autofluor,PrP UTR inh,Mtb hypoxia inh,Mtb hypoxia inh growth
O=S(=O)(c1ccc(Br)s1)N1CCN(c2ncccn2)CC1,7.0,5.8,3.8,22792*,8.8,-2.8,10.8
CN(CC(O)CON=C1c2ccccc2-c2ccccc21)S(=O)(=O)c1ccc(Br)cc1 (stereo not drawn),x,x,9.6,2454,-12.9,x,x
CNC(=S)Nc1cccc(C(=O)OC)c1,x,x,3.1,3584,-21.1,x,x
COc1ccc(CNC(=O)CCn2cccc2)cc1,-3.2,-3.6,7.2,4614,-30.0,x,x
CC(=O)Nc1ccccc1NC(=O)C(F)(F)F,-8.9,5.1,-7.6,16513*,-4.6,0.3,4.6
CCn1cc(C(=O)O)c(=O)c2cc(F)c(N3CCN(C(=S)NC(=O)c4ccccc4C)CC3)cc21,99.7*,99.9*,-8.1,3738,-29.8,20.9,13.5
Cc1ccc(OCc2ccc(C(=O)NCC3CCCO3)cc2)cc1C (stereo not drawn),-1.9,0.8,x,6259,-24.6,3.4,3.4
NC12CC3CC(C1)CC(O)(C3)C2,2.1,2.7,1.1,8582,8.5,-4.0,-1.9
CCn1cc(C(=O)NCC(OC)OC)c(=O)c2cc(S(=O)(=O)N3CCCC3)ccc21,4.8,0.9,5.6,5464,-16.5,6.9,1.5
CC1CN(C(C)CO)C(=O)c2cccc(NS(=O)(=O)c3cn(C)cn3)c2OC1CN(C)Cc1ccncc1 (stereo not drawn),2.0,3.4,x,x,x,13.0,8.2
N#CC(=C(O)COC(=O)c1ccc2c(c1)OCCO2)c1nc2ccccc2[nH]1,-0.1&-4.4,0.8&-0.9,x,3015,-5.7,-0.2,1.1
COc1ccc(CCNC(=O)CCNC(=O)c2ccc(Br)cc2)cc1OC,9.8,2.3,7.5,2340,-20.3,1.4,0.1
COc1ccc(NC(=S)N/N=C/c2cccn2Cc2ccccc2F)cc1,x,x,-20.2,4681,-4.4,x,x
COc1cc(CN2CCN(c3ccccc3F)CC2)cc(OC)c1O,1.2,2.2,-1.8,15285,-2.3,-1.8,0.5
Nc1ccc(C(=O)Nc2ccccc2C(=O)O)cc1,-5.5,7.8,-2.4,8963,-16.7,17.7,17.0
O=C(CCCCn1c(=O)c2ccccc2n(CC(=O)Nc2cccc(F)c2)c1=O)NCc1ccco1,-6.9,0.0,8.0,2383,-18.8,x,x
CC(C)CN(CC(C)C)c1nc(N)c(C#N)c(CC#N)c1C#N,-10.7,4.1,12.7,3412,-3.4,-13.5,3.6
CCOC(=O)C1=C(COC(=O)CCNS(=O)(=O)c2ccc(NC(C)=O)cc2)NC(=O)NC1C (stereo not drawn),5.7,3.5,-18.5,4663,-25.4,11.1,-5.9
O=C(COc1cccc2c1CCN(Cc1ccccc1)C2=O)N1CCCCC1,2.8,4.5,-3.6,4328,-7.9,12.5,8.0
COc1ccccc1NC(=O)CCC(=O)OCC(=O)c1ccc(C)c([N+](=O)[O-])c1,-0.1,-0.8,2.0,5974,-25.0,-7.6,-1.9
Cc1ccc(CNC(=O)CN(C(=O)C2(C)CC(=O)N=C3C=CC=CN32)c2cccc(C)c2C)cc1 (stereo not drawn),-1.8,1.0,-2.1,5803,-23.4,14.4,3.1
CCCCN1C(=S)NC[C@@H]1Cc1cccc2ccccc12,x,x,-4.5,4254,-1.2,x,x
COc1ccc(N(CC(=O)NCCSc2ccccn2)S(C)(=O)=O)cc1,5.0,3.4,-3.9,10518,-7.3,17.1,7.0
O=C(/C=C/c1ccc(Cl)cc1)Nc1ccc(N2CCCCC2)cc1,0.5,5.1,-2.0,12056,-12.0,6.0,13.8
NC(=O)CN1CCOCCOCCN(CC(N)=O)CCOCC1,18.2,6.2,-11.3,10685,-19.6,17.5,9.7

# The list continues:
SMILES,Sa ugtP lethal,RN4220 kill,BJeLR lethal,Bead autofluor,PrP UTR inh,Mtb hypoxia inh,Mtb hypoxia inh growth
COC(=O)CCC(=O)Nc1nc(-c2ccccc2)cs1,11.1,2.7,-10.1,4234,4.2,7.7,4.3
CC(=O)c1cccc(S(=O)(=O)NCCC(=O)NC2CCCCCC2)c1,3.2,1.8,x,4126,-44.8,1.2,-4.6
C/C(=N/NS(=O)(=O)c1ccccc1)c1ccc(NC(=O)C(F)(F)F)cc1,x,x,7.4,2110,-3.8,x,x
Cc1cc(/C=C2/SC(=O)N(CC(=O)N3CCCC3)C2=O)c(C)n1C,14.4,1.6,0.0,4206,-14.5,7.5,2.4
COc1cc(Br)c(CNCCc2ccc3c(c2)OCO3)cc1OC,4.1,2.3,-7.2,4047,-15.6,0.9,4.0
Cc1ccc(-c2ccc(/C=C(\C#N)C(N)=S)n2C)cc1,13.0,3.8,3.2,3679,-74.7,19.1,13.9
Cc1noc(NS(=O)(=O)c2ccc(NC(=O)c3ccc(Cl)c(S(=O)(=O)N(C)c4ccccc4)c3)cc2)c1C,5.1,7.6,x,5685,-37.0,1.3,11.8
O=S(=O)(NCC1OCCc2ccccc21)c1ccccc1 (stereo not drawn),-9.0,0.5,-5.5,10037,-31.9,7.0,6.7
Cc1cccc(C)c1OCCNC(=O)OCc1ccccc1,5.7,2.4,-3.5,4740,-41.8,-2.7,5.9
CC(=O)NC(Cc1ccccc1)C(=O)OCC(=O)c1ccc(F)cc1 (stereo not drawn),-2.2,2.0,-7.9,2088,-14.4,17.4,5.6
S=C1CCC(c2ccc(Br)cc2)=NN1c1ccccc1,-10.2,-0.7,-2.7,5823,-4.2,6.7,17.3
COC(=O)CSc1nnc(-c2ccc(NS(=O)(=O)c3ccccc3)cc2)o1,9.1,0.2,-9.4,6123,-24.3,x,x
Cc1cc(C(=O)NCCCN2CC(C)CC(C)C2)n(-c2ccccc2)n1 (stereo not drawn),-15.5,0.9,14.9,4311,-10.5,-5.7,2.8
COc1ccccc1C(C(C(=O)c1ccccc1)N1CCOCC1)N1CCOCC1 (stereo not drawn),-5.0,4.5,x,3885,-29.6,16.6,11.2
COc1ccc(C=NNS(=O)(=O)c2ccc(NC(C)=O)cc2)cc1,0.7,0.1,x,x,x,10.9,1.6
CC(C)C[C@H](NC(=O)c1nc[nH]c1C(=O)NC1CCNCC1)C(=O)OC(C)(C)C,-7.1,-9.8,-13.0,4577,6.2,3.7,10.8
Cc1ccc2nc(SCC(=O)c3ccccc3)nc(=O)n2c1,0.2,0.8,5.9,5567,-61.2,-2.8,15.7
CCN(CC)S(=O)(=O)c1ccc(NN=Cc2cc(OC)c(OC)cc2OC)nc1,-2.9,6.2,x,x,x,-0.8,8.8
O=C(Cn1ncc2c(=O)oc3ccccc3c21)N(Cc1ccco1)C1CCCCC1,-4.2,-12.4,8.8,5464,-4.2,6.0,10.4
C=CCN1CC(C)C(=NO)CC1C (stereo not drawn),1.9,0.3,x,x,x,3.6,6.5
CC(=O)Nc1sc(C)c(C)c1C(=O)OC(C)C,1.6,6.9,1.5,2560,-12.5,12.6,0.0
O=C(c1ccc2oc(Cc3ccc(Cl)cc3)nc2c1)N1CCCCC1CCO (stereo not drawn),1.1,5.4,4.1,5962,-9.5,-4.0,-6.8
Cc1nn(C)cc1C(C(=O)NC1CCCCC1)N(Cc1ccc(F)cc1)C(=O)c1cnccn1 (stereo not drawn),4.0,0.9,-3.9,3602,-8.8,6.1,7.4
COc1ccc(CNC(=O)N[C@@H](CC(C)C)C(=O)O)cc1OC,0.4,3.7,1.8,u,-20.6,-0.5,1.1
CN(N=C(c1ccccc1)c1ccccc1)c1ccccc1,73.4,6.3,x,3516,-4.3,17.0,7.5

# Screens (PubChem BioAssay)
